Assay outcomes (PubChem)
KCNQ2 pot = KCNQ2 (rat) channel potentiation | O88943 | CHO-K1 KCNQ2, FluxOR thallium flux fluorescence; active compounds read high | B-score at 10 µM | actives 0.54% (n = 310,000) | AID 2239;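 active means fluorescence ratio B-score at least 3 SD of library B-scores, with initial fluorescence B-score within 3 SD, cut at about 5.3 in these data; same plate scores as AID 2156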;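 further: B-score of peak minus minimum over baseline fluorescence ratio after K+ and Tl+ stimulus; positive B-score means potentiation of KCNQ2 with more thallium influx and brighter signal; only the inactives scoring about 0 or higher are listed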
Target sequence (O88943 whole entry, looked up): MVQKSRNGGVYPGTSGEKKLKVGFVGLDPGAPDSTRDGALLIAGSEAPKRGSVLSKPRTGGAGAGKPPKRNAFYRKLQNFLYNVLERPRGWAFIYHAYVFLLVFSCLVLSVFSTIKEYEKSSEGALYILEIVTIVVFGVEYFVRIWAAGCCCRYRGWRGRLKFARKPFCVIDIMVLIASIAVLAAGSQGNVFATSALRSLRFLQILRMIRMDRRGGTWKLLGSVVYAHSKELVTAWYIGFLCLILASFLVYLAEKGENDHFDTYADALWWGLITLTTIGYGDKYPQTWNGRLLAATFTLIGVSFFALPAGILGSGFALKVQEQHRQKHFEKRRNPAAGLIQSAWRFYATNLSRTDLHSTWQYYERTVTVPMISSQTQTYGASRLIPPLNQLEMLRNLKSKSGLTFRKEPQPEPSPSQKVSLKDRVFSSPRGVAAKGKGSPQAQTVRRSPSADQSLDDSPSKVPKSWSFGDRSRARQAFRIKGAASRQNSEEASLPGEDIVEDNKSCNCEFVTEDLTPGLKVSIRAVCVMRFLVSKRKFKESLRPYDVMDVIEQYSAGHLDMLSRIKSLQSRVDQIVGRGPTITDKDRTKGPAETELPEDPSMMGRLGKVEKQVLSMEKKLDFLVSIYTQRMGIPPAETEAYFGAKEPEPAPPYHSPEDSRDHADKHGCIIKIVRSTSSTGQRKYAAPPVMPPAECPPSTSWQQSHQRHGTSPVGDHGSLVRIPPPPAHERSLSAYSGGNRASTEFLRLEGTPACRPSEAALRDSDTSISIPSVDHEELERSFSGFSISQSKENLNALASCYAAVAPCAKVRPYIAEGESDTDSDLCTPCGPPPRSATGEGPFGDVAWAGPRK
KCNQ2 pot baseline = further read-out of KCNQ2 pot, marked with its call; B-score; compound at 10 µM; measured here: initial fluorescence intensity artifact check;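 brightness before thallium and not channel activity; 0 = typical well and far values either way flag optical interference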
Starred values were filed as active, the others as inactive. This is a subset; rates above refer to the full screens.

SMILES	KCNQ2 pot	KCNQ2 pot baseline
CC1CC(C)(C)N(C(=O)CN2CCN(C)CC2)c2ccccc21 (stereo not given)	0.12	-1.72
Cc1ccc(/C=N/NC(=S)Nc2cccc(S(=O)(=O)N(C)C)c2)o1	0.54	1.17
CCOC(=O)C1CCCN(Cc2nc(CC3CC3)no2)C1 (stereo not given)	2.24	-0.5
COC(=O)c1c(NC(=S)NN2CCN(C)CC2)sc2c1CCC(C)C2 (stereo not given)	0.02	-1.58
COc1ccc(NC2=CC(=O)N(C)C2=O)cc1	0.98	-0.2
c1cncc(C(c2nnnn2C2CCCC2)N2CCCC2)c1 (stereo not given)	0.82	-0.19
O=C1OCCC1Sc1nnc(-c2ccccc2)o1 (stereo not given)	1.48	-0.78
CC(=O)N1c2ccc(S(=O)(=O)NCCc3ccc(S(N)(=O)=O)cc3)cc2CC1C (stereo not given)	0.35	-2.21
CCCNC(=O)NC(=O)c1cnccc1C(F)(F)F	0.64	-1.04
COc1cc(/C=N/N=C2/SCC(=O)N2c2ccc(O)cc2)ccc1O	0.19	-0.01
COc1cccc(C(=O)Nc2ccc(NC(=O)C3CC3)nc2)c1	0.8	-0.76
Cc1ccccc1N(CC(=O)NCCc1ccccc1)C(=O)c1csnn1	1.58	0.25
O=C(Nn1cnnc1)c1ccc(OC(F)(F)C(F)C(F)(F)F)cc1 (stereo not given)	1.14	-1.45
Cc1ccc(NC2=NC(=S)N(CC#N)C23CCCCC3)cc1	0.71	-0.62
O=c1c(Cc2c(F)cccc2Cl)c(O)ccn1CCCN1CCOCC1	0.58	-0.8
O=C(NC1CCCCC1)c1cc([N+](=O)[O-])[nH]n1	0.44	-0.08
Cc1cc(=O)oc2cc(OC(C)C(=O)NCC3CCC(C(=O)O)CC3)c(Cl)cc12 (stereo not given)	0.34	0.01
COc1ccc(N2C(=O)CC(N3CCN(c4ccc(C(=O)c5cccnc5)cc4)CC3)C2=O)cc1 (stereo not given)	1.48	0.93
Cc1nn(-c2ccccc2)c(N)c1C1(O)C(=O)Nc2ccc([N+](=O)[O-])cc21 (stereo not given)	0.75	0.13
Cc1noc(C)c1COc1cccc(C(=O)NCCc2c[nH]c3ccccc23)c1	0.11	1.61
COCCCNC(=S)NC1CC2CCC(C1)N2Cc1ccccc1 (stereo not given)	1.38	0.83
O=C(Nc1cc(C(F)(F)F)ccc1-n1cncn1)c1ccc(Br)cc1	2.19	-0.39
COc1cccc(NC(=O)COc2ncnc3sc(C)c(C)c23)c1	0.5	-2.55
COc1ccccc1NS(=O)(=O)c1cc(C(=O)NCc2cccnc2)ccc1C	1.72	0.56
CCN(CC(=O)Nc1ccc2c(c1)OC(F)(F)O2)Cc1nc2ccccc2c(=O)[nH]1	1.31	0.09
CC(=O)NCc1nc2ccccc2n1Cc1ccccc1C	0.74	1.35
O=c1c2c(nc3c(-c4cccc(Br)c4)c[nH]n13)CCCC2	0.09	0.8
CCOC(=O)N1CCOCCOCCN(C(=O)OCC)CCOCC1	0.81	1.02
O=c1cc(CN2CC(O)Cc3ccc4ccccc4c32)nc2sccn12 (stereo not given)	0.32	0.65
Cc1ccc(Nc2nnc(SCC(=O)NCc3ccco3)s2)cc1	0.4	0.19
CCOC(=O)c1sc(Nc2ccc(OCC)cc2)nc1C	1.44	-0.6
CCC(=O)c1c[nH]c(C(=O)NCc2cccc(C(F)(F)F)c2)c1	1.95	-0.82
O=C(Nc1cc2c3c(c1)CC(=O)N3CCC2)c1ccco1	0.9	0.54
CC(=O)Nc1ccc(NC(=O)C(C)Sc2nc3ccccc3c(=O)n2CC2CCCO2)cc1 (stereo not given)	0.03	-1.69
O=C(CN1C(=O)S/C(=C\c2ccc(Cl)cc2)C1=O)NC1C=CS(=O)(=O)C1 (stereo not given)	0.75	-0.39
COCCCNC(=O)c1cn(C)c(=O)c2c1c1ccccc1n2C	1.09	-1.11
CCOCCCN1CN(S(=O)(=O)c2ccc(Cl)cc2)c2nc3ccccc3nc21	0.22	1.05
CC1(C)Cc2cccc(OCC(=O)Nc3ccc(S(N)(=O)=O)cc3)c2O1	0.91	0.14
CCNc1nc(NC(C)C)nc(N(C#N)C(C)C(=O)N(CC)CC)n1 (stereo not given)	0.46	-0.7
CCCN(Cc1cc2cc(C)ccc2[nH]c1=O)C(=O)c1cccc(OC)c1	0.05	-1.44
Cc1ccc(C(=O)NCC(=O)OC(C)C(=O)NC2CCCCC2C)cc1C (stereo not given)	0.44	-0.5
COc1ccc(OCC(=O)N(Cc2sccc2C)C2CCS(=O)(=O)C2)cc1 (stereo not given)	1.14	0.94
CCSc1nc2c(c(=O)[nH]1)C(c1ccncc1)C(C(=O)OC)=C(C)N2 (stereo not given)	0.58	0
NS(=O)(=O)c1cc2c(cc1C(F)(F)F)NCNS2(=O)=O	0.68	1.8
CCCN(CCC)C(=O)Cc1ccc(F)cc1	1.25	-1.62
CCCC(=O)N(Cc1cc(=O)[nH]c2ccccc12)c1ccccc1	0.9	0.51
Cc1c(CC=C(Cl)Cl)c(=O)[nH]c2c(C)cccc12	0.32	0.2
COc1ccc2nc(C)cc(N/N=C/c3ccc(F)cc3)c2c1	0.12	0.34
CCC1(C)NC(=O)N(/N=C/c2ccc(C)s2)C1=O (stereo not given)	0.97	-1.67
CC(CC(=O)NC1CCCCC1)S(=O)(=O)c1ccc2c(c1)CCN2C(=O)C1CC1 (stereo not given)	0.1	0.03
COc1ccc(-n2c(-c3cc(-c4ccccc4)sc3N)n[nH]c2=S)cc1	0.41	-0.91
Cn1nnnc1SCC(=O)N1CCCCC1	0.16	-1.59
COc1ccc(NC(=O)c2cccnc2N2CCCCC2)cc1	0.81	-0.89
COc1ccccc1C(=O)Nc1cccc(NC(C)=O)c1	2.11	-2.92
COC(=O)c1cc(C(=O)OC)n(Cc2ccc(F)cc2)c1C	0.02	1.06
CCc1ccccc1NC(=O)C1CCCN1C(=O)NCc1ccccc1 (stereo not given)	0.64	0.85
COc1ccc(C(C(=O)NC2CCCC2)N(Cc2cccnc2)C(=O)c2snc(C(N)=O)c2N)cc1 (stereo not given)	1.36	-1.68
Cc1cccc(C)c1-n1nnnc1-c1cnccc1C(F)(F)F	0.25	1.12
CCc1nnc(NC(=O)c2ccc(N3C(=O)CCC3=O)cc2)s1	0.09	1.73
O=C(/C=C/c1ccc2c(c1)OCO2)Nc1nncs1	0.83	-1.12

Laid out differently: 4 of the compounds above.
COc1ccc(NC(=O)c2cccnc2N2CCCCC2)cc1
  KCNQ2 pot = 0.81	KCNQ2 pot baseline = -0.89
COc1ccccc1C(=O)Nc1cccc(NC(C)=O)c1
  KCNQ2 pot = 2.11	KCNQ2 pot baseline = -2.92
COC(=O)c1cc(C(=O)OC)n(Cc2ccc(F)cc2)c1C
  KCNQ2 pot = 0.02	KCNQ2 pot baseline = 1.06
CCc1ccccc1NC(=O)C1CCCN1C(=O)NCc1ccccc1 (stereo not given)
  KCNQ2 pot = 0.64	KCNQ2 pot baseline = 0.85

The list continues.
SMILES	KCNQ2 pot	KCNQ2 pot baseline
COc1ccc(/C=N/NC2=NS(=O)(=O)c3ccccc32)cc1OC	1.1	0.12
COc1ccc(NC(=O)CNC(=O)c2nn(-c3ccc(OC)cc3OC)c(=O)c3ccccc23)c(OC)c1	1.33	-0.11
CCO[C@@H]1OC(C(N)=O)=C[C@H](c2ccc(C(F)(F)F)cc2)[C@H]1CCCO	0.02	0.53
CCOc1ccc(N(CC(=O)NC(C)(C)C)C(=O)c2ccco2)cc1	0.14	0.55
COCCCN(C(=O)CSCC(=O)Nc1cccc(C)c1)c1c(N)n(Cc2ccccc2)c(=O)[nH]c1=O	0.85	-1.63
CC(C(=O)Nc1ccc(N2CCOCC2)cc1)N1C(=O)c2ccccc2C1=O (stereo not given)	0.01	0.5
O=C(CN(C(=O)CNC(=O)c1cccs1)c1ccccc1F)NC1CCCCC1	0.81	0.38
O=C(NNC(=O)c1ccccc1[N+](=O)[O-])c1ccco1	0.57	2.05
COc1cc(/C=N/NC(=O)C(=O)NCc2cccnc2)ccc1O	0.17	-2.28
Cc1c(NC(=O)c2ccco2)c(=O)n(-c2ccccc2)n1C	0.39	0.32
Cc1ccc(C(=O)O[C@H](C(=O)O)[C@H](OC(=O)c2ccc(C)cc2)C(=O)O)cc1	0.01	-0.31
CCN1C=C(C(=O)OC)C(c2cccc(C)c2)C(C(=O)OC)=C1	0.79	-0.22
O=C(CSc1ccccc1C(=O)O)NCc1ccc(Cl)cc1	0.04	0.05
CCOC(=O)C1=C(N)N(c2ccccc2)C(=O)C1	0.6	-2.63
O=C(NNc1c2ccccc2nc2ccccc12)c1ccc(O)cc1	1.14	-0.32
NC1=NC(c2cccc(O)c2)n2c(nc3ccccc32)N1 (stereo not given)	1.07	-2.6
COc1ccc(CNC(=O)C2CC(O)CN2C(=O)Nc2ccccc2)cc1 (stereo not given)	0.22	0.06
COc1cc(C2c3c(oc4ccccc4c3=O)C(=O)N2Cc2ccco2)ccc1O (stereo not given)	0.92	0.03
COc1ccccc1C(=O)Nc1ccnn1C1CCN(CCC(C)c2ccc(C)o2)CC1 (stereo not given)	0.34	-0.78
O=C(Nc1cccc(C(F)(F)F)c1)C1CCN(S(=O)(=O)c2cnc[nH]2)CC1	0.72	-0.77
CCOc1ccc(/C=C/C(=O)NCc2ccccc2)cc1	0.04	-1.18
CCCC(=O)NC(NC(=S)Nc1ccc(N=Nc2ccccc2)cc1)C(Cl)(Cl)Cl (stereo not given)	1.01	0.3
O=C(CCCN=C1NS(=O)(=O)c2ccccc21)OCC(=O)c1ccc(Br)cc1	0.32	-1.56
O=C(c1ccc2ncsc2c1)N1CCCC(C(F)(F)F)C1 (stereo not given)	2.4	-0.64
CCOc1cccc(N(C(=O)C2COc3ccccc3O2)C(C(=O)NC2CCCCC2)c2ccc(O)cc2)c1 (stereo not given)	0.02	-0.06
CCOC(=O)c1[nH]cnc1C(=O)Nc1ccc(C)cc1	0.02	-0.81
c1nnc2c3c4c(sc3ncn12)CCC4	1.33	0.03
CN(CC(=O)Nc1cccc(F)c1)C(=O)c1ccc(N2CCCC2)c([N+](=O)[O-])c1	2.9	-1.27
O=C(CCCc1c[nH]c2ccccc12)Nc1ccc2ccccc2c1	0.22	0.59
Cc1ccc(C)c(S(=O)(=O)NCc2ccc3c(c2)OCO3)c1	1.03	0.04
CC1CCN(S(=O)(=O)N2CCC(C(=O)NCCc3ccccc3)CC2)CC1	0.03	-2.14
COC(=O)c1ccc(Cc2ccc(C(=O)OC)o2)o1	1.43	-0.48
O=C(CCC(=O)N(CC(=O)NC1CCCCC1)c1ccc(F)cc1)Nc1nccs1	0.96	0.02
CC1=Nn2c(nc(-c3ccccc3)c2-c2ccccc2)N(CC(N)=O)C(=O)C1	0.13	0.14
CCCn1c(N)c(C(=O)CSc2nnc(-c3cccnc3)n2-c2ccc(C)cc2C)c(=O)[nH]c1=O	0.31	-0.15
COc1ccc(S(=O)(=O)N(CC(=O)NCc2ccco2)c2ccccc2OC)cc1	0.68	-1.35
COc1cccc(/C=C/C(=O)OCC(=O)Nc2ccc(S(=O)(=O)N3CCCC3)cc2)c1	0.21	0.41
COc1cccc(CN2CCN(CC(=O)NCCc3ccccc3)CC2)c1	0.16	0.66
CCOC(=O)Cn1nnnc1CN(Cc1ccc(OC)cc1)Cc1cc2cc(C)cc(C)c2[nH]c1=O	1.86	-0.02
O=C(/C=C/c1cccs1)Nc1ccc(S(=O)(=O)Nc2ncccn2)cc1	0.02	0.26
COc1ccc(/C=N/NC(=O)C2CC2)c(OC)c1OC	0.26	1.88
O=C(/C=C/c1ccc(F)cc1)NCc1ccco1	1.17	1.25
COc1ccc([N+](=O)[O-])cc1NC(=O)CS(=O)(=O)c1ccc(C)cc1	1.68	0.47
O=C(CSc1nnc(Cn2cnc3ccccc32)o1)c1ccccc1	1.75	0.01
COc1ccccc1CN1CC(C(=O)NCCc2ncccc2C)CCC1=O (stereo not given)	0.16	-0.38
CCN(CC)C(=O)Cn1nc(-c2ccncc2)nc1SCC(=O)Nc1ccc(OC)cc1	1.09	-0.95
Cc1c(C(=O)O)sc2nc(/C=C/c3ccccc3OC(F)F)[nH]c(=O)c12	0.47	0.02
COCC(=O)N1CCC(Oc2ccc(C(=O)N3C[C@@H](C)O[C@@H](C)C3)cc2)CC1	0.08	1.25
C=CCN1CC(=O)N2Cc3[nH]c4ccccc4c3C[C@H]2C1=O	1.12	-0.19
CCOC(=O)c1sc(=S)n(-c2ccc3c(c2)OCO3)c1N	0.74	-1.07
CC(=O)c1ccc(NC2OC(C)C(O)C(O)C2O)cc1 (stereo not given)	0.32	0.24
CNC(=O)COC(=O)CNC(=O)c1cc(Cl)cc([N+](=O)[O-])c1	0.44	-2.61

3 compounds from above, ordered by heavy-atom count, ascending:
SMILES	KCNQ2 pot	KCNQ2 pot baseline
Cc1cccc(C)c1-n1nnnc1-c1cnccc1C(F)(F)F	0.25	1.12
CCOCCCN1CN(S(=O)(=O)c2ccc(Cl)cc2)c2nc3ccccc3nc21	0.22	1.05
O=C(CCC(=O)N(CC(=O)NC1CCCCC1)c1ccc(F)cc1)Nc1nccs1	0.96	0.02
